Screening results from PubChem.
A1 apoptosis 2: A1 inhibitors via caspase activation, primary screen, cell-based, luminescence, HTS, two replicates; MEF A1-2A-BIM cells, caspase-Glo luminescence, 3 h; percent of clofoctol response, DMSO zero; caspase activation, % (no concentration beside the values); 24,000 tested, under 10 active; AID 2465, 2010; in the data active = caspase activation above about 5.9%;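 also: wells of about 30 µL received 50 nL stock; the first replicate is given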
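Material: A1-2A-BIM-expressing MEF cells. Buffer or medium: RPMI-1640 plus 10% FBS. Incubation: cells settled overnight, compound exposure 3 h at 37 °C, 5% CO2. Signal: Caspase-Glo 3/7 luminescence, 1 h at room temperature.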
The depositor's hits bear a star.

SMILES	A1 apoptosis 2
C[C@H](CO)N1C[C@H](C)[C@H](CN(C)S(=O)(=O)c2ccc(F)cc2)Oc2ccc(NC(=O)Nc3ccc4c(c3)OCO4)cc2CC1=O	-0.1
C[C@H]1CN([C@@H](C)CO)C(=O)Cc2cc(NS(=O)(=O)c3ccccc3)ccc2O[C@H]1CN(C)Cc1ccc2c(c1)OCO2	-0.6
C[C@H](CO)N1C[C@H](C)[C@H](CN(C)S(=O)(=O)c2cn(C)cn2)Oc2ccc(NC(=O)CCC(F)(F)F)cc2CC1=O	-0.9
COc1ccc(S(=O)(=O)Nc2ccc3c(c2)C(=O)N([C@@H](C)CO)C[C@H](C)[C@H](CN(C)S(=O)(=O)c2c(C)noc2C)OCCCC[C@@H](C)O3)cc1	0.0
C[C@@H]1CN([C@@H](C)CO)C(=O)c2cc(NS(=O)(=O)c3ccc(F)cc3)ccc2O[C@@H](C)CCCCO[C@@H]1CN(C)C(=O)Nc1ccc2c(c1)OCO2	0.5
C[C@@H]1CCCCO[C@@H](CN(C)CC2CC2)[C@@H](C)CN([C@H](C)CO)C(=O)c2cc(NC(=O)C3CCCCC3)ccc2O1	1.6
C[C@H]1CN([C@@H](C)CO)C(=O)c2cc(NS(=O)(=O)c3cccs3)ccc2O[C@H]1CN(C)S(=O)(=O)c1ccc(Cl)cc1	0.6
C[C@@H]1CN([C@@H](C)CO)C(=O)c2cccc(NC(=O)c3ccncc3)c2O[C@H]1CN(C)S(=O)(=O)c1ccc(F)cc1	-0.3
C[C@@H]1CN([C@@H](C)CO)C(=O)c2cccc(NC(=O)C3CC3)c2O[C@H]1CN(C)C(=O)Nc1ccc(C(F)(F)F)cc1	-0.4
C[C@@H]1CCCCO[C@@H](CN(C)C(=O)Nc2ccc3c(c2)OCO3)[C@@H](C)CN([C@H](C)CO)C(=O)c2cc(NS(=O)(=O)c3ccc(F)cc3)ccc2O1	-0.4
C[C@@H]1CCCCO[C@H](CN(C)C)[C@H](C)CN([C@H](C)CO)C(=O)c2cc(NS(=O)(=O)c3cn(C)cn3)ccc2O1	0.1
Cc1ccc(S(=O)(=O)Nc2ccc3c(c2)CC(=O)N([C@H](C)CO)C[C@H](C)[C@H](CN(C)S(=O)(=O)c2ccc(F)cc2)O3)cc1	-0.6
C[C@H](CO)N1C[C@H](C)[C@H](CN(C)Cc2ccc(C(=O)O)cc2)Oc2ccc(NC(=O)Nc3cccc4ccccc34)cc2CC1=O	-0.3
COc1ccc(S(=O)(=O)N(C)C[C@H]2Oc3c(NS(=O)(=O)c4cn(C)cn4)cccc3C(=O)N([C@@H](C)CO)C[C@H]2C)cc1	-0.4
C[C@@H]1CN([C@@H](C)CO)C(=O)c2cccc(NC(=O)Nc3ccccc3)c2O[C@H]1CN(C)C(=O)Nc1cccc2ccccc12	1.0
O=C(N/N=C/c1ccc(F)cc1)c1ccccc1O	-3.9
NC(=O)[C@H]1[C@@H]2C(=O)O[C@@H](c3ccccc3)[C@@H](c3ccccc3)N2[C@@H](c2ccc(O)cc2)[C@]12C(=O)Nc1ccc(C#CC3=CCCCC3)cc12	-0.2
C[C@@H]1CN([C@H](C)CO)C(=O)c2cccc(NC(=O)c3ccc(-c4nccs4)cc3)c2O[C@@H]1CN(C)Cc1ccc(C(F)(F)F)cc1	0.7
C[C@H](CO)N1C[C@H](C)[C@H](CN(C)C(=O)c2cc(-c3ccccc3)on2)OCc2cn(nn2)CCCC1=O	-0.6
C[C@H]1CN([C@@H](C)CO)C(=O)Cc2cc(NC(=O)NC3CCCCC3)ccc2O[C@H]1CN(C)S(=O)(=O)c1ccccc1	0.2
NC(=O)[C@@H]1[C@H]2C(=O)O[C@H](c3ccccc3)[C@H](c3ccccc3)N2[C@H](c2ccc(O)cc2)[C@@]12C(=O)Nc1ccc(C#CCCO)cc12	0.8
C[C@@H]1CN([C@H](C)CO)C(=O)Cc2cc(NC(=O)c3ccncc3)ccc2O[C@H]1CN(C)C(=O)Nc1cccc2ccccc12	-0.2
C[C@@H]1CCCCO[C@H](CN(C)Cc2ccc(C(=O)Nc3ccccc3N)cc2)[C@@H](C)CN([C@H](C)CO)C(=O)c2cc(NS(=O)(=O)c3cccs3)ccc2O1	0.2
NC(=O)NCC#Cc1ccc2c(c1)[C@]1(C(=O)N2)[C@H](c2ccccc2OCCO)N2[C@H](c3ccccc3)[C@H](c3ccccc3)OC(=O)[C@H]2[C@@H]1C(=O)O	0.4
C=CCNC(=O)[C@@H]1[C@H]2C(=O)O[C@H](c3ccccc3)[C@H](c3ccccc3)N2[C@H](c2ccccc2OCCO)[C@@]12C(=O)Nc1ccccc12	-0.5
Cc1noc(C)c1NC(=O)Nc1cccc2c1O[C@@H](CN(C)C(=O)NC1CCCCC1)[C@@H](C)CN([C@H](C)CO)C2=O	-0.6
C[C@H]1CCCCO[C@H](CN(C)Cc2ccc(Cl)c(Cl)c2)[C@@H](C)CN([C@@H](C)CO)C(=O)c2cc(NC(=O)CCC(F)(F)F)ccc2O1	0.8
COc1ccc(CN(C)C[C@H]2OCCCC[C@H](C)Oc3ccc(NC(=O)Nc4c(C)noc4C)cc3C(=O)N([C@@H](C)CO)C[C@H]2C)cc1	-0.7
C[C@@H]1CCCCO[C@@H](CN(C)S(=O)(=O)c2ccc(Cl)cc2)[C@H](C)CN([C@@H](C)CO)C(=O)c2cc(NC(=O)CCC(F)(F)F)ccc2O1	-0.3
CNC[C@@H]1Oc2ccc(NC(=O)Nc3ccccc3)cc2C(=O)N([C@@H](C)CO)C[C@@H]1C	0.0

Exported in CSV form: entries from further up
Structure,A1 apoptosis 2
C=CCNC(=O)[C@@H]1[C@H]2C(=O)O[C@H](c3ccccc3)[C@H](c3ccccc3)N2[C@H](c2ccccc2OCCO)[C@@]12C(=O)Nc1ccccc12,-0.5
C[C@H]1CN([C@@H](C)CO)C(=O)Cc2cc(NC(=O)NC3CCCCC3)ccc2O[C@H]1CN(C)S(=O)(=O)c1ccccc1,0.2
COc1ccc(CN(C)C[C@H]2OCCCC[C@H](C)Oc3ccc(NC(=O)Nc4c(C)noc4C)cc3C(=O)N([C@@H](C)CO)C[C@H]2C)cc1,-0.7

The list goes on:
SMILES	A1 apoptosis 2
Cc1noc(C)c1S(=O)(=O)Nc1cccc2c1O[C@H](CN(C)C(=O)NC1CCCCC1)[C@H](C)CN([C@H](C)CO)C2=O	-1.0
Cc1noc(C)c1S(=O)(=O)Nc1ccc2c(c1)C(=O)N([C@@H](C)CO)C[C@@H](C)[C@H](CN(C)Cc1ccncc1)OCCCC[C@@H](C)O2	0.6
COc1ccc(CN(C)C[C@H]2Oc3ccc(NC(=O)Nc4c(C)noc4C)cc3CC(=O)N([C@@H](C)CO)C[C@H]2C)cc1	0.1
C[C@H]1CN([C@@H](C)CO)C(=O)c2cccc(NC(=O)Nc3ccc(C(F)(F)F)cc3)c2O[C@@H]1CN(C)C(=O)NC1CCCCC1	0.3
Cc1noc(C)c1S(=O)(=O)Nc1ccc2c(c1)C(=O)N([C@@H](C)CO)C[C@H](C)[C@H](CN(C)C)O2	-0.1
C[C@H](CO)N1C[C@H](C)[C@@H](CN(C)C(=O)c2ccccc2)OCCCC[C@H](C)Oc2ccc(NC(=O)CCCN(C)C)cc2C1=O	0.3
CC(C)NC(=O)N(C)C[C@H]1OCCCC[C@H](C)Oc2ccc(NS(=O)(=O)c3ccccc3)cc2C(=O)N([C@H](C)CO)C[C@H]1C	-0.9
C[C@H]1CN([C@@H](C)CO)C(=O)c2cc(NC(=O)Nc3cccc4ccccc34)ccc2O[C@@H]1CN(C)CC1CCCCC1	1.2
CC(C)NC(=O)N(C)C[C@H]1OCc2cn(nn2)CCCC(=O)N([C@@H](C)CO)C[C@H]1C	-0.7
Cc1noc(C)c1NC(=O)N(C)C[C@@H]1Oc2ccc(NC(=O)Nc3cccc4ccccc34)cc2C(=O)N([C@@H](C)CO)C[C@@H]1C	-0.1
C[C@@H]1CCCCO[C@@H](CN(C)S(=O)(=O)c2ccccc2)[C@H](C)CN([C@@H](C)CO)C(=O)c2cc(NC(=O)Nc3ccccc3)ccc2O1	0.8
COc1ccc(S(=O)(=O)Nc2ccc3c(c2)C(=O)N([C@@H](C)CO)C[C@H](C)[C@@H](CN(C)C(=O)c2ccccc2)OCCCC[C@@H](C)O3)cc1	2.6
C[C@H](CO)N1C[C@H](C)[C@@H](CN(C)C(=O)c2ccc(N3CCN(C)CC3)cc2)OCc2cn(nn2)CCCC1=O	-1.2
C[C@@H]1CCCCO[C@H](CN(C)CC2CCCCC2)[C@@H](C)CN([C@H](C)CO)C(=O)c2cc(NS(=O)(=O)c3ccc(Cl)cc3)ccc2O1	-0.4
C[C@H]1CN([C@@H](C)CO)C(=O)c2cc(NC(=O)Cc3cn(C)c4ccccc34)ccc2O[C@@H]1CN(C)C(=O)Nc1cccc2ccccc12	-0.7

Reprinted at random: 7 records from the list, in no set order.
SMILES	A1 apoptosis 2
Cc1noc(C)c1NC(=O)N(C)C[C@@H]1Oc2ccc(NC(=O)Nc3cccc4ccccc34)cc2C(=O)N([C@@H](C)CO)C[C@@H]1C	-0.1
COc1ccc(S(=O)(=O)Nc2ccc3c(c2)C(=O)N([C@@H](C)CO)C[C@H](C)[C@H](CN(C)S(=O)(=O)c2c(C)noc2C)OCCCC[C@@H](C)O3)cc1	0.0
C[C@@H]1CN([C@H](C)CO)C(=O)Cc2cc(NC(=O)c3ccncc3)ccc2O[C@H]1CN(C)C(=O)Nc1cccc2ccccc12	-0.2
C[C@H](CO)N1C[C@H](C)[C@@H](CN(C)C(=O)c2ccccc2)OCCCC[C@H](C)Oc2ccc(NC(=O)CCCN(C)C)cc2C1=O	0.3
C[C@H]1CN([C@@H](C)CO)C(=O)Cc2cc(NS(=O)(=O)c3ccccc3)ccc2O[C@H]1CN(C)Cc1ccc2c(c1)OCO2	-0.6
Cc1ccc(S(=O)(=O)Nc2ccc3c(c2)CC(=O)N([C@H](C)CO)C[C@H](C)[C@H](CN(C)S(=O)(=O)c2ccc(F)cc2)O3)cc1	-0.6
C[C@@H]1CN([C@@H](C)CO)C(=O)c2cc(NS(=O)(=O)c3ccc(F)cc3)ccc2O[C@@H](C)CCCCO[C@@H]1CN(C)C(=O)Nc1ccc2c(c1)OCO2	0.5

(list continues)
SMILES	A1 apoptosis 2
Cc1ccc(S(=O)(=O)N(C)C[C@@H]2Oc3c(NC(=O)c4cc(C)nn4C)cccc3C(=O)N([C@@H](C)CO)C[C@@H]2C)cc1	0.3
Cc1noc(C)c1S(=O)(=O)N(C)C[C@H]1Oc2c(NC(=O)C3CC3)cccc2C(=O)N([C@H](C)CO)C[C@H]1C	0.7
Cc1noc(C)c1NC(=O)N(C)C[C@@H]1Oc2ccc(N(C)C)cc2C(=O)N([C@@H](C)CO)C[C@H]1C	-1.7
C[C@@H]1CN([C@H](C)CO)C(=O)c2cc(NC(=O)Nc3ccccc3)ccc2O[C@@H](C)CCCCO[C@@H]1CN(C)C	-1.8
C[C@H]1CN([C@@H](C)CO)C(=O)c2cc(NC(=O)CCCN(C)C)ccc2O[C@H]1CN(C)Cc1ccc(C(=O)O)cc1	-0.1
C[C@H]1CN([C@@H](C)CO)C(=O)c2cc(NC(=O)CCCN(C)C)ccc2O[C@@H]1CN(C)C(=O)Nc1ccccc1	0.5
C[C@@H]1CN([C@@H](C)CO)C(=O)Cc2cc(NC(=O)Cc3cn(C)c4ccccc34)ccc2O[C@H]1CN(C)S(=O)(=O)c1ccc(Cl)cc1	0.4
C[C@@H]1CN([C@H](C)CO)C(=O)c2cc(NC(=O)c3ccncc3)ccc2O[C@@H]1CN(C)C(=O)Nc1ccc2c(c1)OCO2	-0.8
COc1ccc(CN(C)C[C@@H]2Oc3ccc(NC(=O)NC4CCCCC4)cc3C(=O)N([C@@H](C)CO)C[C@H]2C)cc1	0.9
Cc1noc(C)c1S(=O)(=O)Nc1cccc2c1O[C@@H](CN(C)Cc1ccc(C(F)(F)F)cc1)[C@@H](C)CN([C@@H](C)CO)C2=O	-0.3
C[C@@H]1CN([C@H](C)CO)C(=O)c2cccc(NC(=O)Nc3ccccc3)c2O[C@H]1CN(C)S(C)(=O)=O	-0.3
C[C@H](CO)N1C[C@H](C)[C@@H](CN(C)C)Oc2ccc(NS(=O)(=O)c3ccccc3)cc2CC1=O	-0.4
O=C1O[C@@H](c2ccccc2)[C@@H](c2ccccc2)N2[C@@H](c3ccc(OCCO)cc3)[C@]3(C(=O)Nc4ccccc43)[C@@H](C(=O)N3CCCCCCC3)[C@H]12	0.3
Cc1noc(C)c1NC(=O)N(C)C[C@H]1Oc2ccc(NC(=O)C3CC3)cc2C(=O)N([C@@H](C)CO)C[C@@H]1C	0.2
COc1ccc(C#Cc2ccc3c(c2)[C@]2(C(=O)N3)[C@H](C(N)=O)[C@H]3C(=O)O[C@H](c4ccccc4)[C@H](c4ccccc4)N3[C@@H]2c2ccc(OCCO)cc2)cc1	0.5
COc1ccc(NC(=O)N(C)C[C@H]2OCCCC[C@@H](C)Oc3ccc(NS(=O)(=O)c4ccc(Cl)cc4)cc3C(=O)N([C@@H](C)CO)C[C@H]2C)cc1	-0.2
Cc1noc(C)c1NC(=O)Nc1ccc2c(c1)CC(=O)N([C@H](C)CO)C[C@@H](C)[C@H](CN(C)Cc1ccccc1)O2	-0.3
CC(C)NC(=O)Nc1ccc2c(c1)C(=O)N([C@H](C)CO)C[C@@H](C)[C@@H](CN(C)C(=O)Nc1ccc3c(c1)OCO3)O2	-1.0
C[C@H]1CN([C@@H](C)CO)C(=O)Cc2cc(NC(=O)Cc3cn(C)c4ccccc34)ccc2O[C@H]1CN(C)S(=O)(=O)c1cn(C)cn1	-0.6
C[C@@H]1CN([C@H](C)CO)C(=O)Cc2cc(NC(=O)Nc3cccc4ccccc34)ccc2O[C@@H]1CN(C)C(=O)NC1CCCCC1	-0.1
CN(C)C(=O)[C@]1(Cc2ccccc2N=[N+]=[N-])N=C(c2ccc(OCCCO)cc2)O[C@@H]1c1ccccc1	-0.3
C[C@H]1CN([C@@H](C)CO)C(=O)Cc2cc(NC(=O)Nc3cccc4ccccc34)ccc2O[C@H]1CN(C)C(=O)NC1CCCCC1	-0.2
Cc1noc(C)c1NC(=O)Nc1ccc2c(c1)C(=O)N([C@H](C)CO)C[C@@H](C)[C@@H](CN(C)CC1CCCCC1)OCCCC[C@@H](C)O2	0.8

Not all compounds are listed. The share of hits here may be higher or lower than overall.
